Vif A3G: HIV-1 Vif–A3G interaction blockers – biochemical, TR-FRET, GST-Vif 1-94, biotin-A3G peptide, dose response retest, primary screen (AID 1117319) | inhibition, %, or IC50 in µM where a hit was titrated | hit rate 0.57% among 260,000 | TR-FRET GST-Vif / biotin-A3G peptide binding; higher % means a stronger effect; test concentration not given here; strong numbers were not always called active;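 active = above the screen mean plus three standard deviations and confirmed in dose response; inconclusive = results disagree or hit not tested in dose response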;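 also: Vif residues 1-94 fused to GST binding biotinylated APOBEC3G peptide 110-148; 0% = full assay without inhibitor and 100% = GST in place of GST-Vif; retest series ran down from 100 µM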
T cruzi repl: blocks replication of Trypanosoma cruzi; hit rate 1.4% among 300,000; T. cruzi beta-gal in NIH3T3, luminescence, 90 h; inhibition, % (test concentration not listed);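 active = mean inhibition across valid replicates above about 55%, limit read from the data; inconclusive = mean below that limit but half or more replicates reach it; inactive = mean below it, under half of replicates reach it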;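 also: signal also drops with host cell toxicity which is not excluded here; 0% = plate median of DMSO wells and 100% = zero luminescence signal; higher percent means less beta-gal luminescence so fewer parasites; stock transfer was 50 nL into about 50 µL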
LANA-H2B inh: blocks KSHV LANA binding to histone H2A/H2B | inhibition, % (test concentration not listed) | Q9QR71 | hit rate 0.6% among 320,000 | AID 2629 | cell-free LANA-H2A/H2B peptide, fluorescence polarization; in the data active = inhibition mostly above about 10%, no sharp cut-off; inactive = mostly below about 6.7%;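 also: stock transfer was 7.5 nL into about 10 µL; 0% = median of vehicle wells and 100% = median of positive control wells; one replicate is shown; the record names a cut of 25% in any replicate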
Target sequence (Q9QR71 whole entry, looked up): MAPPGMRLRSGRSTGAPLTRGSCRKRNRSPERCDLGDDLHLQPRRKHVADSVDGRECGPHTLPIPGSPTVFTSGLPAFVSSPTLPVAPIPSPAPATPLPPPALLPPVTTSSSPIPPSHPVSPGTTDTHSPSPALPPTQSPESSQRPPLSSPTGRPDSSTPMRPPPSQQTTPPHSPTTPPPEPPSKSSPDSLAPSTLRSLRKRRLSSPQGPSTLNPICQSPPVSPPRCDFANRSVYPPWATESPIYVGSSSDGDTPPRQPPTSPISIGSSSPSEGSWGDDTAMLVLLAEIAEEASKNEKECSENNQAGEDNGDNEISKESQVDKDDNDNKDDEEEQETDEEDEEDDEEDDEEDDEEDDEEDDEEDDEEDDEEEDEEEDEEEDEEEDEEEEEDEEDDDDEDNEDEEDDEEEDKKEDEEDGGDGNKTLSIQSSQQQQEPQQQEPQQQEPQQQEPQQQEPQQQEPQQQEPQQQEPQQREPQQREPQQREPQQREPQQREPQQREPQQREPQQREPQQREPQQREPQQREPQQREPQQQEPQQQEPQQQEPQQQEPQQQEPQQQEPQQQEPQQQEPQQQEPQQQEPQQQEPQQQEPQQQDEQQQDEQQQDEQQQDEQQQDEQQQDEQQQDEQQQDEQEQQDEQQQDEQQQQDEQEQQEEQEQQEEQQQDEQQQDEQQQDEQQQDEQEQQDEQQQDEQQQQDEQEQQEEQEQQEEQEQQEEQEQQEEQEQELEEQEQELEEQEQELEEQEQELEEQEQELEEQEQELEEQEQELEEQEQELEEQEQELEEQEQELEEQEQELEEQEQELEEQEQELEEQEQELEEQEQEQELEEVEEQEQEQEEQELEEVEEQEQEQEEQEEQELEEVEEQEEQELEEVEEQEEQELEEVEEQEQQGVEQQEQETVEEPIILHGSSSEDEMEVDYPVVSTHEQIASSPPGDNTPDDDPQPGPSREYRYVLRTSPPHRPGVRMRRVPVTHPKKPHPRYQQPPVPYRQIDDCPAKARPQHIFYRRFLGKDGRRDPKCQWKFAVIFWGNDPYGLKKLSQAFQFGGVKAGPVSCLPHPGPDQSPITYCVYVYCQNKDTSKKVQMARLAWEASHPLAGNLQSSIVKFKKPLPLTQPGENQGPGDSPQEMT
A1 inh: inhibitors of the anti-apoptotic protein A1, read as caspase activation | MEF A1-2A-BIM cells, Caspase-Glo 3/7 luminescence, 3 h; percent of clofoctol response, vehicle zero | caspase activation, % (concentration not given with the values) | hit rate 0.066% among 330,000;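 active = over half of replicate activation scores above 10%, or exactly half above 10 with the replicate mean above 10; inconclusive = replicate mean below 10 yet half the replicates above 10; inactive = over half of replicates below 10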;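 also: wells of about 30 µL received 50 nL stock; many hits fall short of the cut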
RanGTP-Imp inh: disruptors of Ran-importin-beta complex formation – biochemical, FRET, CFP-Ran, YFP-importin-beta, homogeneous, primary screen | cell-free CFP-Ran/YFP-importin-beta FRET ratio | inhibition, % (test concentration not listed) | hit rate 1.1% among 300,000 | AID 2216;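 active = most replicates above 15%; inconclusive = exactly half above 15%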;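 also: 0% = DMSO wells and 100% = Ran loaded with GDP instead of GTP; wells of about 40 µL received 100 nL stock; the first replicate is given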
Calb FLC: affects C. albicans growth with fluconazole | hit rate 0.57% among 300,000 | C. albicans CaCi-2 (fluconazole-resistant clinical isolate) + fluconazole, Alamar Blue growth, 48 h | growth inhibition, % (concentration not given with the values);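 active = most replicates above 75%; inconclusive = exactly half above 75%; inactive = most below 75%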;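 also: all wells also contain fluconazole at 8 µg/ml as a sub-toxic cotreatment; 0% = median of DMSO wells and 100% = median of geldanamycin control wells; wells of about 8 µL received 7.5 nL stock; the first replicate is given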
AF4-AF9 inh: inhibitors of human MLL-AF4/AF9 interaction; AlphaScreen, biotin-AF4 peptide binding to FLAG-AF9; inhibition, % at 10 µM; hit rate 0.47% among 350,000; AID 651704;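 active = every replicate reaching a set inhibition limit, whatever the replicate mean, cut at about 25% in these data; inconclusive = mean inhibition reaches that limit but some replicates miss it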;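 also: 0% = plate neutral control median and 100% = total signal loss; the record names both 10 and 1 µM as test concentration; the first replicate is given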
Beta apoptosis: beta cell apoptosis inhibition. hit rate 0.8% among 300,000. protection from apoptosis, % (no concentration beside the values). INS-1E cytokine-induced death, ATP luminescence, 48 h; percent of positive-control rescue, neutral wells zero. AID 435005;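 active = all replicates at 75% or more, or half of them and the mean; inconclusive = half reach 75% but not the mean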;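 also: 0% = cytokine-treated negative control wells and 100% = positive control rescue; higher means more ATP so stronger rescue from cytokine killing; wells of about 40 µL received 100 nL stock; the first replicate is given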
Starred values were filed as active, the others as inactive; ? = inconclusive; nt = no result given. An unsorted share of the library. Share with any hit: about 4.3%.

SMILES,Vif A3G,T cruzi repl,LANA-H2B inh,A1 inh,RanGTP-Imp inh,Calb FLC,AF4-AF9 inh,Beta apoptosis
O=C1CCCS(=O)(=O)c2ccccc21,13%,-1,5.4,0.8,-0.7,32,2.4,-3
N#CC(C(=O)C1CCCCC1)c1nc2ccccc2[nH]1 (stereo not given),1%,-10,0.7,-0.5,1.5,21,nt,nt
O=S(=O)(c1ccccc1C(F)(F)F)N1CCC(n2cnc3ccccc32)CC1,20%,-14,-1.1,0.4,0.5,-2,0.1,14
O=C(/C=C/c1ccccc1Cl)NC(=S)Nc1ccccc1C(=O)NC1CCCCC1,16%,-5,-2.5,-0.3,0.2,25,nt,-7
COc1ccc(-n2nc3c(c2NC(=O)C2CCCC2)CS(=O)(=O)C3)cc1,nt,8,2.6,-0.1,-1.5,-2,-4.7,-4
CCCCNc1c(-c2ccc(OC)c(Sc3ccc(OC)cc3)c2)nc2cnccn12,nt,nt,-1.3,-0.8,nt,nt,-4.1,7
O=C(C#Cc1cccc([N+](=O)[O-])c1)c1ccccc1,-1%,51,9.1,1.2,-0.2,11,nt,39
O=C(NC1CC1)C1=C[C@H](c2csc3ccccc23)C[C@H](OCCCCO)O1,9%,7,3.3,-0.5,0.9,-2,-2.9,-1
CC(C)(C)C(=O)Cn1nc(Cl)nc1Cl,-5%,-7,1.9,-1.3,-1.3,-6,0.4,-4
COc1cccc(-c2noc(-c3ccc(Cl)nc3)n2)c1,0%,-5,-1.2,-6.7,2.0,32,-4.6,nt

SMILES,Vif A3G,T cruzi repl,LANA-H2B inh,A1 inh,RanGTP-Imp inh,Calb FLC,AF4-AF9 inh,Beta apoptosis
Cc1cc(C2C(=O)C(C(=O)c3ccc(Cl)cc3)C(=O)CC2(C)C)on1 (stereo not given),12%,-6,-3.4,0.5,4.1,7,nt,-8
O=C(Cc1ccc(-n2c(=O)c3ccccc3n(Cc3ccccc3F)c2=O)cc1)NCC1CCCO1 (stereo not given),-7%,4,4.7,-0.1,?,12,-23,-8
CC1CCC2C(C1)Nc1c(C(=O)O)cccc1C2(C)C (stereo not given),-1%,6,2.6,0.0,?,53,-2.2,0
O=S(=O)(NCCc1cccs1)c1ccc(Br)cc1,nt,-8,3.6,-0.1,-0.2,44,-1.8,-3
O=C(N/N=C/c1cccnc1)c1cc(Br)ccc1O,-4%,5,2.2,-7.6,0.1,3,-7.6,0
O=C(NCc1ccc(F)cc1)c1cnc2sccn2c1=O,nt,-11,0.3,-0.7,1.4,4,7.2,-1
O=C(CP(=O)(c1ccccc1)c1ccccc1)Nc1nc2ccccc2s1,-4%,4,0.0,0.6,1.6,-2,nt,12
CCCCCCCCCOC1OC(CO)C(O)C(O)C1NC(C)=O (stereo not given),-6%,-4,-2.3,0.0,1.2,2,-1.4,-1
CC1(C)NC(=O)N(CCCCOc2cccc(C(F)(F)F)c2)C1=O,3%,3,6.8,0.4,4.0,-4,nt,-3
CCOC(=O)C1CCN(C(=O)/C(C)=C\c2ccccc2)CC1,-3%,13,-4.4,-0.2,-7.7,?,-2.0,0

SMILES,Vif A3G,T cruzi repl,LANA-H2B inh,A1 inh,RanGTP-Imp inh,Calb FLC,AF4-AF9 inh,Beta apoptosis
O=C(Nc1cccc(Cl)c1)C1COc2ccccc2O1 (stereo not given),nt,-11,-6.3,-0.2,2.3,-21,2.7,-5
Cc1cc(S(=O)(=O)Nc2c(C(=O)O)[nH]c3ccccc23)ccc1F,-3%,4,0.3,0.9,0.5,5,nt,0
CC(C)CCCCCCNC(=S)Nc1ccc(S(=O)(=O)N2CCOCC2)cc1,nt,5,-1.6,-0.3,1.6,0,6.4,98*
Cc1nc2cc(NC(=O)COc3ccccc3C#N)ccc2n1-c1ccccc1,6%,16,-11,-0.3,9.4,8,nt,-3
CCOc1ccc2nc(COC(=O)c3cccs3)c(C(C)=O)[n+]([O-])c2c1,nt,-10,-2.1,0.0,5.4,?,0.4,-3
COc1ccc(N2C(=O)CC(N3CCN(Cc4ccc5c(c4)OCO5)CC3)C2=O)cc1 (stereo not given),16%,-3,-13,0.5,2.4,-2,-1.0,-5
CCn1c(SC)nnc1C1CCN(S(=O)(=O)c2ccc(OC)cc2)CC1,-4%,4,-0.6,-0.4,-2.7,5,nt,-3
COc1ccc(NC(=O)Nc2cccc3c2O[C@H](CN(C)S(C)(=O)=O)[C@@H](C)CN([C@H](C)CO)C3=O)cc1,nt,nt,1.2,0.5,nt,nt,-5.4,-7
FC(F)(F)c1ccccc1NC(=S)N1CCCC1,nt,nt,1.3,-0.3,2.3,-16,-1.4,-5
O=C(CNc1cc(S(=O)(=O)N2CCOCC2)ccc1NCC1CCCO1)Nc1ccc(C(F)(F)F)cc1 (stereo not given),9%,2,2.7,0.0,2.3,-8,8.3,-2

SMILES,Vif A3G,T cruzi repl,LANA-H2B inh,A1 inh,RanGTP-Imp inh,Calb FLC,AF4-AF9 inh,Beta apoptosis
O=C(Nc1nnc(Cc2ccccc2)s1)c1ccco1,1%,-48,-1.6,-0.1,-3.6,21,nt,2
COc1ccccc1CN1C[C@@H]2C[C@@H](c3[nH]c4ccc(C)cc4c3C)N3CCC[C@@]23C1=O,?,25,-11,0.4,-4.7,3,3.1,nt
COc1ccc(C)c2sc(N(CCCN(C)C)C(=O)c3ccc(S(=O)(=O)N(C)C)cc3)nc12,-2%,27,7.1,0.5,0.9,0,3.2,2
CCC(CC)c1nnc(NS(=O)(=O)Cc2ccccc2)s1,2%,1,2.9,0.8,-2.6,1,nt,4
O=C(Nc1cccc(F)c1)c1ccco1,?,0,-0.1,-1.9,4.1,-9,-2.7,-2
COc1ccc(-c2cc3cc(C(=O)O)ccn3c2C(=O)c2ccccc2)cc1,-5%,-8,3.4,-0.6,-30,12,0.4,1
C/C(=N\N1C(C)CCCC1C)c1ccccc1O (stereo not given),5%,0,-4.2,-0.5,1.9,1,3.4,-5
Cc1c(Cl)cccc1NC(=S)N1CCCN(Cc2ccccc2F)C1,13%,21,-2.0,0.3,4.5,0,-4.7,-5
O=c1cc(CSc2ccc(S(=O)(=O)N3CCCCC3)cn2)nc2sccn12,17%,7,1.9,0.6,3.8,nt,nt,-2
COc1ccc(Cc2noc(-c3ccc(C)cc3)n2)cc1,0%,0,-5.8,-4.4,-3.5,11,nt,-7

SMILES,Vif A3G,T cruzi repl,LANA-H2B inh,A1 inh,RanGTP-Imp inh,Calb FLC,AF4-AF9 inh,Beta apoptosis
COC1(OC)N=C(N)C2(C#N)C(c3ccc(F)cc3)C12C#N (stereo not given),1%,-6,4.9,1.3,3.3,5,nt,1
CC1(C)OC(=O)C(=CNC(CO)C(=O)O)C(=O)O1 (stereo not given),-5%,-15,-6.4,0.0,?,-6,-0.6,-9
Cc1cc(SCC(=O)c2cccs2)n2nc(C)c(-c3ccc(Cl)cc3)c2n1,5%,15,-5.1,0.9,-0.6,3,-6.0,26
O=C(O)c1ccccc1N/N=C/c1cc(Br)cc(Br)c1O,26%,-5,3.3,-5.0,-0.8,-5,30*,8
CC(C)(C)C(=O)Nc1nnc(-c2ccccc2)c(-c2ccccc2)n1,nt,25,-5.0,1.1,-0.5,0,-4.8,nt
O=C(NC1CCCCC1)c1c(O)nc2sccn2c1=O,-6%,4,2.9,-0.2,0.7,-15,1.2,nt
O=S(=O)(c1ccc(F)cc1)N1CCn2c(nc3ccccc32)C1,-4%,6,-5.0,-0.3,?,10,1.0,3
O=C(COC(=O)CCc1c[nH]c(=O)[nH]1)Nc1ccccc1Cl,0%,-11,3.1,0.0,3.0,7,nt,-4
CC(=O)c1cc2c(cc1NC(=O)c1cc(C)nn1-c1ccccc1)OCO2,12%,-13,2.4,0.2,-4.3,1,34*,5
CCOC(=O)COc1ccc(S(=O)(=O)NCC2CCCO2)cc1 (stereo not given),-4%,-3,-1.9,-0.2,?,-10,?,nt

SMILES,Vif A3G,T cruzi repl,LANA-H2B inh,A1 inh,RanGTP-Imp inh,Calb FLC,AF4-AF9 inh,Beta apoptosis
CCc1nc(SCc2ccccc2C#N)n[nH]1,nt,3,-3.1,0.4,-1.6,4,-5.0,nt
COc1cccc(NC(=O)CN(C)C(=O)CCNC(=O)c2ccccc2Cl)c1,-7%,nt,-2.9,1.5,nt,nt,-1.8,-24
COc1ccc(C(=O)c2c(C)oc3cc([N+](=O)[O-])c(O)c([N+](=O)[O-])c23)cc1,9%,34,3.0,0.0,-5.1,-13,nt,-1
CC(=O)NC1N=C(C)N(c2ccccc2)C1=O (stereo not given),3%,-6,1.3,0.2,?,-1,nt,-5
COc1cccc(=O)c2c(C)n(CC(=O)c3ccccc3)c(C)c12,20%,3,-5.3,0.8,0.7,9,-4.2,-2
Cc1cc(C)c(S(N)(=O)=O)c(C)c1N(C)S(=O)(=O)c1ccc(Cl)cc1,nt,5,12*,-0.4,4.2,-15,3.3,-12
O=S(=O)(Nc1ncccn1)c1ccc(NC(=S)NCCc2ccccc2)cc1,8%,-7,2.3,0.8,2.8,-2,0.0,-2
COc1ccc(-c2cc(=O)[nH][nH]2)cc1,2%,-20,-3.4,1.1,1.0,nt,nt,-6
CCOC(=O)C(NCCc1ccccc1)(NC(=O)CC)C(F)(F)F (stereo not given),2%,5,1.6,0.3,7.1,-9,3.4,-3
CCCCn1c(C)nc2c(=O)n(C)c(=O)[nH]c21,78%,-1,-0.8,0.3,2.2,15,nt,3

SMILES,Vif A3G,T cruzi repl,LANA-H2B inh,A1 inh,RanGTP-Imp inh,Calb FLC,AF4-AF9 inh,Beta apoptosis
Cc1c(NS(=O)(=O)c2ccc(NCCN3CCOCC3)c([N+](=O)[O-])c2)c(=O)n(-c2ccccc2)n1C,nt,-6,4.5,-0.2,0.2,-1,-1.5,0
CC1(C)N=C(SCC(=O)Nc2ccc(Cl)cc2)C(c2ccc(Cl)cc2)=N1,1%,42,-0.8,-0.2,2.9,-1,nt,-17
Cc1ccc(S(=O)(=O)N(CCC(=O)NCc2ccccc2F)c2ccccc2)cc1,-11%,nt,-5.3,1.1,nt,nt,-1.7,-1
COc1ccc([N+](=O)[O-])cc1Nc1ncnc2ccccc12,nt,3,-4.1,0.0,-0.6,?,-2.4,1
O=c1nc(N2CCOCC2)nc2n1CCO2,76%,-1,-0.4,0.4,-2.0,-8,nt,-6
